Compound activity deposited in PubChem by National Center for Advancing Translational Sciences (NCATS).
AmpC inh no det: AmpC beta-lactamase inhibition, detergent-free assay. P00811. AmpC nitrocefin hydrolysis, absorbance 480 nm, no detergent; potencies from a single point are estimates. Potency, µM (top dose mostly 28.7 µM), for the others: at the top dose activity change, negative = inhibition. 1.8% of 71,000 active. AID 585; active = falling curve, for most hits resting on a single point; inconclusive = weak or doubtful change; inactive = flat or rising curve; note: % of control where 0% means no effect; about half of the hits show no inhibition at the top dose; a quarter of the inactives give rising signals
Target sequence (P00811 whole entry, looked up): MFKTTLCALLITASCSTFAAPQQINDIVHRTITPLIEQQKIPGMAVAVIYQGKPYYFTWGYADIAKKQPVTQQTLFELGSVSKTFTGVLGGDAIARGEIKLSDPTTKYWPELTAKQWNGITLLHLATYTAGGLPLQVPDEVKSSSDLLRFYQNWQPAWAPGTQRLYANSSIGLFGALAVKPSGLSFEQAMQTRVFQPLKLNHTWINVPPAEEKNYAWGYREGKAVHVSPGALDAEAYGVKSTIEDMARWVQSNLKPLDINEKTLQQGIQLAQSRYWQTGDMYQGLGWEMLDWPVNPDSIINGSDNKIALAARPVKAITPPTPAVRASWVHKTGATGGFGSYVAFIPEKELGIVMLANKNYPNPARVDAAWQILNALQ
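Enzyme, pH 7.0 phosphate. Compound titrations were pre-incubated with AmpC for 15 min at room temperature before nitrocefin (stock 800 uM) addition; product formation was recorded at 480 nm every 20 s for 4 min.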
The depositor's hits bear a star; & = joins results of further samples; [ ] = remark or other dose. Potency is the fitted concentration of half-maximal effect.

SMILES | AmpC inh no det
COc1cc(C(=O)Nc2cccc(-c3nc4ccccc4o3)c2C)cc(OC)c1OC | 9.0%
O=c1[nH]c2ccccc2c(=O)n1Cc1ccco1 | -8.2%
COc1ccc(S(=O)(=O)Nc2ccccc2C(=O)NCc2ccco2)cc1Br | -13.6%
CCCCNC(=O)OCC(CC)NC(=O)OC(C)C (stereo not drawn) | 4.0%
CCOC(=O)c1[nH]c(C)c(C(=O)N(C)C)c1C | -18.1%
COc1ccc(NC(=O)Nc2c(C)n(C)n(-c3ccccc3)c2=O)cc1 | 3.98µM*[single pt active]
COC(=O)c1c(C)cc(C)n2c1nc1ccccc12 | 13.2%
O=C1C=C(NCC2CCCO2)C2(CCCCC2)O1 (stereo not drawn) | -7.3%
C=C(C)c1cccc(C(C)(C)NC(=O)Nn2cnnc2)c1 | -4.1%
O=C(COC(=O)C1CCCCC1C(=O)N1CCc2ccccc21)NCc1ccco1 (stereo not drawn) | 74.4%

A second format for part of the listing above.
| compound | AmpC inh no det |
| --- | --- |
| COc1ccc(S(=O)(=O)Nc2ccccc2C(=O)NCc2ccco2)cc1Br | -13.6% |
| CCCCNC(=O)OCC(CC)NC(=O)OC(C)C (stereo not drawn) | 4.0% |
| CCOC(=O)c1[nH]c(C)c(C(=O)N(C)C)c1C | -18.1% |
| COc1ccc(NC(=O)Nc2c(C)n(C)n(-c3ccccc3)c2=O)cc1 | 3.98µM*[single pt active] |

Carrying on:
SMILES | AmpC inh no det
Cc1[nH]nc(N=Cc2c(O)n(C)c(=O)n(C)c2=O)c1-c1ccccc1 | 12.5%
COC(=O)c1c(C)[nH]c(C)c1C(=O)c1ccccc1Cc1ccccc1 | 58.2%&33.2%
CCc1ccc(NC(=O)CSc2nnc(Cn3c(=O)sc4ccccc43)n2C)cc1 | 10.7%
COC(=O)c1c(C)n(-c2ccc(OC)cc2)c2ccc(O)cc12 | -9.7%
Cc1cccc2cc(COC(=O)C(C)C)c(=O)[nH]c12 | 13.4%
COc1ccc(OC)c(NC(=O)CC(Cc2ccccc2OC)C(=O)O)c1 (stereo not drawn) | -5.7%
CCOc1ccc(C2/C(=C(\O)c3c(C)[nH]c(C(=O)OC)c3C)C(=O)C(=O)N2CCN(C)C)cc1 (stereo not drawn) | -4.6%
O=C(Nc1ccccc1)N1CCC(C(=O)N(Cc2ccco2)Cc2cccs2)CC1 | 7.1%
Cn1cccc1C(=O)NC(=O)COC(=O)c1ccccc1O | -12.6%
Cc1cc(N2C(=O)C(=O)/C(=C(/O)c3ccc(F)cc3)C2c2ccc(Cl)cc2)no1 (stereo not drawn) | -20.9%
Cc1nnc(NC(=O)c2ccc(-c3cccc(C(F)(F)F)c3)o2)s1 | 22.5%
CCC/C=C(\CCC)C(NC(=O)OCC(C)C)c1ccc(C(=O)OC)cc1 (stereo not drawn) | 4.7%
Cc1ccc2nsnc2c1S(=O)(=O)N1CCN(CCc2ccccc2)CC1 | 35.6%
O=C(CCn1c(=O)oc2ccccc21)N1CCC2(CC1)OCCO2 | 3.2%
N#Cc1c(NC(=O)CSC2=NCCS2)sc2c1CCCC2 | -12.9%
COC(=O)C1=C(N)n2c(s/c(=C\c3cccnc3)c2=O)=C(C(=O)OC)C1c1cccnc1 (stereo not drawn) | 44.1%
Cc1cc(O)c(C(C)C)cc1N=Cc1ccccc1O | 7.0%[5.75 µM]
CCOC(=O)c1c(C)n(C)c2ccc(OCC(O)CN(CC)CC)cc12 (stereo not drawn) | 31.3%
O=C(NC1=NCCS1)c1ccc2c(c1)C(=O)N(Cc1ccco1)C2=O | 0.4%
CC(=O)Nc1ccc(S(=O)(=O)NCc2ccc(C(=O)NCc3ccc4c(c3)OCO4)cc2)cc1 | 10.5%
Cc1ccccc1CN(c1ccc(C(=O)N2CCCC2)cc1)S(C)(=O)=O | 89.3%
O=C(NCCCN1CCOCC1)c1cc2cc(Br)ccc2oc1=O | 15.5%
CCOC(=O)c1nnn(-c2nonc2N)c1-c1ccc(OCC)cc1 | 7.8%
CC(=O)Nc1cccc(-c2nc3ccc(NC(C)=O)cc3[nH]2)c1 | -18.1%
COc1ccc(C2CC(=O)N3CN(c4ccccc4F)CSC3=C2C#N)cc1OC (stereo not drawn) | 0.6%
CCn1c(SCC(=O)N2CCCc3ccccc32)nc2ccccc2c1=O | 81.5%
COc1ccc(NC(=O)N2CC[C@@]3(CCCN(C(=O)Oc4ccccc4)C3)C2)cc1 | 16.2%
O=C(CSc1nccn1-c1ccc(F)cc1)NCc1ccc2c(c1)OCO2 | 21.1%
Cc1ccc([N+](=O)[O-])c(C)c1 | -0.9%
COc1cccc(C2N(c3ccc(Cl)c(Cl)c3)C(=O)C3CCCN32)c1OC (stereo not drawn) | 120.4%
Cc1cccc(Cn2c(N3CCN(c4ccccc4)CC3)nc3c2c(=O)n(C)c(=O)n3C)c1 | 138.3%
COC(=O)[C@@]1(Cc2ccc(F)cc2)[C@H]2c3cc(C(=O)N(C)C)n(Cc4ccc(OC(F)(F)F)cc4)c3C[C@H]2CN1C(=O)c1ccccc1 | 141.4%
CCOC(=O)CC(=O)CSc1ccc2nnc(-c3ccc(C)cc3)n2n1 | 21.6%
O=C(OCC(=O)N1CCN(c2ccccc2)CC1)c1ccco1 | 6.0%
Nc1nonc1C(=O)NCCc1ccccc1 | -2.4%
CSc1ccc(S(=O)(=O)Nc2cccc(F)c2)cc1 | -6.1%
COc1cc(OC)c(C2=NOC(C(=O)O)C2)cc1Cl (stereo not drawn) | -0.1%
O=C(O)C1CCC(=O)N1C1c2ccccc2Oc2ccccc21 (stereo not drawn) | 6.6%
CN(Cc1nc(-c2ccncc2)no1)S(=O)(=O)c1ccccc1 | 10.2%
CCCCC(=O)N1CCCC(c2nc3c(nnn3Cc3cc(C)ccc3C)c(=O)[nH]2)C1 (stereo not drawn) | 82.5%
CC(CN1CCOCC1)C(=O)O (stereo not drawn) | -8.8%
COc1ccc(C)cc1NC(=O)CNC(=O)Cn1ccc2ccccc2c1=O | 13.6%
CCNc1ncc2nc(-c3ccccc3)c(=O)n(C)c2n1 | -5.7%
CCOC(=O)CCc1c(C)c2ccc(OCC(=O)N(CC)CC)c(C)c2oc1=O | 122.3%
Cc1ccc(C)c(C(=O)N(Cc2nc(-c3ccc(Cl)cc3)no2)C(C)C)c1 | 58.5%
CCOc1ccccc1NC(=O)CC1Nc2ccccc2NC1=O (stereo not drawn) | 0.4%
Cc1cc(CNC(=O)C(C)Cc2ccccc2)nn1C (stereo not drawn) | 2.2%
Cc1ccc(CC2CC(=O)N(Cc3ccco3)C2=O)cc1 (stereo not drawn) | 29.8%
CCC(C)NC(=O)c1ccccc1NS(=O)(=O)c1ccc(OC)c(OC)c1 (stereo not drawn) | 16.8%
CCOC(=O)N1CCN(C(=O)CN(c2ccc(C)c(C)c2)S(=O)(=O)c2ccccc2)CC1 | 123.1%
Next results follow:
SMILES | AmpC inh no det
COc1cc2cc3c4cc(OC)c(OC)cc4cc[n+]3c(C)c2cc1OC | 10.2%[12.8 µM]
Cn1c(=O)c2[nH]c(C3CCCC3)nc2n(C)c1=O | 4.0%
N#Cc1nc(COc2ccc(Br)cc2)oc1N1CCCCCC1 | 2.6%
Cc1c(C#N)c2ccccc2n1CC(=O)NCCc1c[nH]c2ccccc12 | -6.3%
NCC1(CC(=O)O)CCCCC1 | 15.7%
CC(C)(C)NC(=O)CSc1nnc(NC(=O)CCn2cnc3ccccc3c2=O)s1 | 12.2%
N#CC1(c2c(O)nc3n(c2=O)CCCS3)CCCCC1 | -11.9%
CCc1[nH]nc2c1C1(CCN(C(=O)OCc3ccccc3)CC1)C(C#N)=C(N)O2 | -3.2%
CC(C)(C)C(=O)Cn1c(=O)n(CC2CCCO2)c(=O)c2ccccc21 (stereo not drawn) | 6.9%
CCN(CC)S(=O)(=O)c1ccc2c(c1)nc(CCC(=O)OCc1c(C)noc1C)n2C | 58.4%
CN(C)Cc1c(O)ccc2[nH]cnc12 | -19.7%
CC(C)(C)NC(=O)C(c1ccccc1)N(C(=O)c1csnn1)C1CC1 (stereo not drawn) | 14.5%
CN(C)c1ccc(N=Cc2ccco2)cc1 | 24.5%
CCC1CCCCN1CCCn1c(=S)[nH]c2ccccc2c1=O (stereo not drawn) | -8.6%
Cc1ccc2oc(Nc3nc(C)cc(C)n3)nc2c1 | -1.4%
O=C(Cc1ccccc1)Nc1cccc(N2CCCC2)c1 | -7.6%
Nc1nc(N)c2[nH]c(CNc3ccc(C(=O)O)cc3)nc2n1 | -6.4%[5.75 µM]
COc1ccc(S(=O)(=O)Nc2ccc(S(=O)(=O)N3CCCCC3)cc2)cc1OC | -5.0%
CCCC1(CCC)C(=O)NC(=NCc2ccccc2)NC1=O | -9.9%
CCOc1ccc(C(=O)Nc2c3c(nn2C(C)(C)C)CSC3)cc1OCC | 45.6%
COC(=O)N1CC=CC1(C)C(=O)NCC1CC1 (stereo not drawn) | -1.1%
CC(=O)Nc1ccc(NC(=O)c2cc(C)nn2-c2ccccc2)cc1 | -3.1%
Cc1ccccc1N(Cc1nnc2n1CCCCC2)C(=O)Nc1ccccc1 | 12.4%
CSc1nnc(-c2ccco2)c(-c2ccco2)n1 | -10.6%
Cc1ccc(-c2cc3nc4c(c(=O)n3[nH]2)CCCC4)cc1 | -10.9%
COc1cc(-c2nnc(SCC(=O)N3CCCC3)o2)cc(OC)c1OC | 15.3%
CSc1nnc(-c2ccc(S(=O)(=O)N3CCOCC3)cc2)n1CC1CCCO1 (stereo not drawn) | 3.3%
Cn1c(=O)c2c(nc(NC(Cc3ccccc3)C(=O)O)n2Cc2ccccc2)n(C)c1=O (stereo not drawn) | 13.1%
Cc1nn(C)c(C)c1CN(C)C(=O)c1cc2n(n1)C(C(F)(F)F)CC(c1cccs1)N2 (stereo not drawn) | 103.3%
Cc1cc(C)cc(C(=N)c2ccccc2Cc2cccc3ccccc23)c1 | -15.3%[5.75 µM]
Cc1cc(NS(=O)(=O)c2ccc(NC(=O)COc3ccccc3Cl)cc2)no1 | -15.5%
Cn1c(=O)c2c(nc(NCCCO)n2CCc2ccccc2)n(C)c1=O | 18.9%
COCc1c(C(=O)OCC(=O)c2c(N)n(CC(C)C)c(=O)n(C)c2=O)oc2ccccc12 | 69.5%
Cc1nn(-c2ccccc2)c(Cl)c1C(=O)Nc1nnc(C2CCCC2)s1 | 50.3%
Cc1nc2cc(NC(=O)Nc3nccs3)ccc2n1C | -14.0%
COc1ccc(CNC(=O)CS(=O)Cc2nc(-c3ccccc3C)oc2C)cc1 (stereo not drawn) | 93.9%
COC(=O)c1cn(CCOc2ccccc2)c2ccccc12 | 6.9%
CCS(=O)(=O)C(=C(Nc1ccc(OC)cc1)Nc1ccc(OC)cc1)S(=O)(=O)CC | 56.9%
Cc1cc(NC(=O)c2noc3c2CCCC3)no1 | -9.0%
CN(C)c1ccc(NC(=O)CSc2nc3c(c(=O)[nH]2)CCCC3)cc1 | -8.1%

Four of these compounds, set out differently:
compound: COc1ccc(CNC(=O)CS(=O)Cc2nc(-c3ccccc3C)oc2C)cc1 (stereo not drawn)
  AmpC inh no det = 93.9%
compound: COC(=O)c1cn(CCOc2ccccc2)c2ccccc12
  AmpC inh no det = 6.9%
compound: CCS(=O)(=O)C(=C(Nc1ccc(OC)cc1)Nc1ccc(OC)cc1)S(=O)(=O)CC
  AmpC inh no det = 56.9%
compound: Cc1cc(NC(=O)c2noc3c2CCCC3)no1
  AmpC inh no det = -9.0%

Other entries follow.
SMILES | AmpC inh no det
Oc1c(Cl)cc(Cl)c(Cl)c1Cc1c(O)c(Cl)cc(Cl)c1Cl | 5.01µM*
CN(C)CC/C=C1\c2ccccc2CSc2ccccc21 | 24.9%[12.8 µM]
COc1ccc2cc(CCNC(=O)C3CCCC3)c(=O)[nH]c2c1 | 15.9%
Cc1cc(C)nc(/N=c2/ssnc2Cl)c1 | -10.5%
COC(=O)[C@@H]1C[C@H]1[C@@H](NC(=O)c1cnccn1)c1ccccc1 | 17.6%
CCc1nnc(NC(=O)c2cccc(OC)c2)s1 | 10.3%
CCC(C)NC(=O)CN(c1ccc(OC)cc1)S(=O)(=O)c1ccc(NC(C)=O)cc1 (stereo not drawn) | 19.4%
COc1ccc(N2CCN(S(=O)(=O)c3ccc(C(=O)NCc4ccco4)cc3)CC2)cc1 | -7.0%
CC(=O)Nc1ccccc1OC(=O)N(C)C | 1.2%
COc1ccc(CN2CCN(C(=O)CC(C)C)CC2)cc1OC | 17.3%
N#CC1=C(N)Oc2n[nH]c(-c3ccncc3)c2C1c1ccsc1 (stereo not drawn) | -21.5%
CCCCOP(=O)(c1ccc(N(C)C)cc1)C(O)c1ccncc1 (stereo not drawn) | 18.0%
CCN(CC)CCCNS(=O)(=O)c1ccc(OC)cc1 | -5.2%
CC(=O)c1c(C(C)=O)c(C)n(Cc2ccccc2)c1C | 11.3%
CC1=C(C#N)C(c2cccnc2)C2=C(CC(C)(C)CC2=O)N1 (stereo not drawn) | 6.0%
NC(=O)c1sc2nccc(Nc3ccccc3)c2c1N | -9.6%
CCS(=O)(=O)Nc1ccc(-c2ccc(NS(=O)(=O)CC)c(OC)c2)cc1OC | 38.8%
CC[C@H](C)C(=O)O[C@H]1C[C@@H](C)C=C2C=C[C@H](C)[C@H](CC[C@@H]3C[C@@H](O)CC(=O)O3)[C@H]21 | 130.0%
CCCn1c(NCc2ccc(N(C)C)cc2)nc2ccccc21 | 31.0%
Cc1cc(C)c(OCC(=O)Nc2cccc(O)c2)cc1C | -8.2%
COc1cc(NC(=O)c2ccc3c(c2)OCO3)c2ncccc2c1 | -1.9%
CC1=Nc2ccccc2NC(=O)C1Sc1nnc(C)s1 (stereo not drawn) | -0.9%
CC(=O)Nc1cccc(OC(=O)c2ccoc2C)c1 | 13.6%
CCCCn1c(CNC(=O)CCC)nc2ccccc21 | 25.3%
O=C(O)CSCCC(=O)Nc1ccc(F)cc1 | 2.5%

This is a subset; count on the stated rates, not on these rows.
